Bioassay records: PubChem, several laboratories
Beta cell apopt: blocks beta cell apoptosis; INS-1E cytokine-induced death, ATP luminescence, 48 h; percent of positive-control rescue, neutral wells zero; protection from apoptosis, % (no concentration beside the values); 300,000 tested, 0.8% active; AID 435005;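 active means all replicates at 75% or more, or half of them and the mean; inconclusive means half reach 75% but not the mean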;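 further: 0% = cytokine-treated negative control wells and 100% = positive control rescue; higher means more ATP so stronger rescue from cytokine killing; wells of about 40 µL received 100 nL stock; the first replicate is given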
A1 inh: inhibitors of the anti-apoptotic protein A1, read as caspase activation; 330,000 tested, 0.066% active; caspase activation, % (concentration not given with the values); AID 2462; MEF A1-2A-BIM cells, Caspase-Glo 3/7 luminescence, 3 h; percent of clofoctol response, vehicle zero;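 active means over half of replicate activation scores above 10%, or exactly half above 10 with the replicate mean above 10; inconclusive means replicate mean below 10 yet half the replicates above 10; inactive means over half of replicates below 10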;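 further: wells of about 30 µL received 50 nL stock; many hits fall short of the cut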
RanGTP-Imp inh: inhibitors of RanGTP-importin-beta interaction, primary screen, biochemical, FRET, CFP-Ran, YFP-importin-beta, homogeneous | cell-free CFP-Ran/YFP-importin-beta FRET ratio | inhibition, % (test concentration not listed) | 300,000 tested, 1.1% active | AID 2216;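 active means most replicates above 15%; inconclusive means exactly half above 15%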;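 further: 0% = DMSO wells and 100% = Ran loaded with GDP instead of GTP; wells of about 40 µL received 100 nL stock; the first replicate is given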
T cruzi repl: blocks replication of Trypanosoma cruzi; AID 1885; T. cruzi beta-gal in NIH3T3, luminescence, 90 h; 300,000 tested, 1.4% active; inhibition, % (no concentration beside the values);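 active means mean inhibition across valid replicates above about 55%, limit read from the data; inconclusive means mean below that limit but half or more replicates reach it; inactive means mean below it, under half of replicates reach it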;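 further: signal also drops with host cell toxicity which is not excluded here; 0% = plate median of DMSO wells and 100% = zero luminescence signal; higher percent means less beta-gal luminescence so fewer parasites; stock transfer was 50 nL into about 50 µL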
LANA-H2A inh: blocks KSHV LANA binding to histone H2A/H2B; Q9QR71; cell-free LANA-H2A/H2B peptide, fluorescence polarization; inhibition, % (concentration not given with the values); 320,000 tested, 0.6% active; in the data active means inhibition mostly above about 10%, no sharp cut-off; inactive means mostly below about 6.7%;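 further: stock transfer was 7.5 nL into about 10 µL; 0% = median of vehicle wells and 100% = median of positive control wells; one replicate is shown; the record names a cut of 25% in any replicate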
Target sequence (Q9QR71 whole entry, looked up): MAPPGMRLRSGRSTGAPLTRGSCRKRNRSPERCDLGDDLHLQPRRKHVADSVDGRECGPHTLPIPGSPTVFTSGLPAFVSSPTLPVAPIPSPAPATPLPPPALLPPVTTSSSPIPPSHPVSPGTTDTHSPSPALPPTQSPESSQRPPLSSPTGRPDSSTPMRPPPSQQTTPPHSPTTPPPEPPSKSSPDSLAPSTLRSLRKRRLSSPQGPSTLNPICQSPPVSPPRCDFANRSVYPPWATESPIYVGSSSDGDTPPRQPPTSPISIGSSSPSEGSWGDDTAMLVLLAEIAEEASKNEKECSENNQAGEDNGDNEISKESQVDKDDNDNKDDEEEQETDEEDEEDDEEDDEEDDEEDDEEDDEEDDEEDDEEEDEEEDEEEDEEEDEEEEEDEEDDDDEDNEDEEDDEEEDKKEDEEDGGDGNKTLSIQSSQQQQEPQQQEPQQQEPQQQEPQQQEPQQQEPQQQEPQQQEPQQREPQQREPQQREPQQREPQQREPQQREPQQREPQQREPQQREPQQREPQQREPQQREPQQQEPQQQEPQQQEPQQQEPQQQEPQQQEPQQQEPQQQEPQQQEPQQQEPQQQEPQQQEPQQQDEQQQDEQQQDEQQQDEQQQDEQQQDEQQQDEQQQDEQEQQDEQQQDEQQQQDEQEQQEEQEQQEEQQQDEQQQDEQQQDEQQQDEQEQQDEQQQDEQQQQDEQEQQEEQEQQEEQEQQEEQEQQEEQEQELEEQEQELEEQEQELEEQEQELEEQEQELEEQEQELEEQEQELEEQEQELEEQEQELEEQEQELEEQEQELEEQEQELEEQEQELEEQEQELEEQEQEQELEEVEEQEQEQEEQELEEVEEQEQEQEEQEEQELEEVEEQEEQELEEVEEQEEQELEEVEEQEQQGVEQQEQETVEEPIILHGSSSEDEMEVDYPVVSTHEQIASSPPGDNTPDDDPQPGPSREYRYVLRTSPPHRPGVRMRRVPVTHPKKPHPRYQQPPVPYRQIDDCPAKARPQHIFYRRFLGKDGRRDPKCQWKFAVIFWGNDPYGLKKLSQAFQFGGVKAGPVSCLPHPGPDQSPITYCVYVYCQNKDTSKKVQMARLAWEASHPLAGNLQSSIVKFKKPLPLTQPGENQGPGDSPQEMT
UCH37 DUB inh: inhibitors of human deubiquitinating enzyme UCH37. Q9Y5K5. purified proteasome/UCH37, Ub-AMC cleavage fluorescence. inhibition, % (no concentration beside the values). 330,000 tested, 0.33% active;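 active means mean of two replicates above 20%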;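 further: 0% = compound-free wells with enzyme and 100% = wells lacking proteasome; stock transfer was 100 nL into about 20 µL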
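Schedule: 30 min plus 25 min, room temperature / Material: human UCH37 within purified proteasomes / Technique: AMC fluorescence intensity at 355/460 nm / Buffer or medium: pH 7.4 Tris-HCl (50 mM) with ovalbumin, ATP-MgCl2, DTT / Controls: wells without proteasome as full block, compound-free enzyme plus substrate as uninhibited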
B2AR ag: activates human beta-2 adrenergic receptor causing internalization; response, % (no concentration beside the values); Am2.2-beta2AR cells, FAP receptor internalization, flow cytometry; reference of the scale not given here; AID 504454; P07550; 340,000 tested, 0.43% active;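 active means response above a set limit, near 3 SD of response in nonfluorescent compounds, cut at about 42% in these data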;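 further: stock transfer was 100 nL into about 11 µL; a reference agonist was the positive control; negative values mostly stem from fluorescent compounds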
Calb FLC: affects C. albicans growth with fluconazole; C. albicans CaCi-2 (fluconazole-resistant clinical isolate) + fluconazole, Alamar Blue growth, 48 h; 300,000 tested, 0.57% active; growth inhibition, % (no concentration beside the values);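 active means most replicates above 75%; inconclusive means exactly half above 75%; inactive means most below 75%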;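 further: all wells also contain fluconazole at 8 µg/ml as a sub-toxic cotreatment; 0% = median of DMSO wells and 100% = median of geldanamycin control wells; wells of about 8 µL received 7.5 nL stock; the first replicate is given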
* = called active by the depositor; ? = inconclusive; nt = not tested or not shown. An unsorted share of the library, and some 4.3% of all compounds hit somewhere here.

SMILES	Beta cell apopt	A1 inh	RanGTP-Imp inh	T cruzi repl	LANA-H2A inh	UCH37 DUB inh	B2AR ag	Calb FLC
O=C(CN1CCN(C(=O)C2CC2)CC1)Nc1cc(C(F)(F)F)cc(C(F)(F)F)c1	1	1.2	nt	nt	-1.4	2.4	-9	nt
O=S(=O)(c1cccs1)N1CCCc2cccc(O)c21	-5	-0.6	-1.6	-3	2.2	4.2	-7	-2
CCN(CC)C(=O)c1cc(-c2ccccc2OC)on1	2	-1.1	-2.8	16	0.4	-0.6	1	-5
O=S(=O)(c1ccc(S(=O)(=O)N2CCN(Cc3ccccc3)CC2)cc1)N1CCOCC1	nt	nt	4.0	0	nt	0.3	nt	8
COc1ccccc1-c1ccc(=O)n(CC(=O)NCc2ccco2)n1	-3	-0.8	0.0	6	37*	0.4	1	-15
CCOC(=O)c1ccc(S(=O)(=O)N2CCC(C(=O)OCC)CC2)cc1	0	0.7	3.9	3	-3.0	3.0	3	-7
Cc1cc(C)c(C#N)c(N2CCOCC2)n1	1	0.6	?	-4	3.9	-52	2	22
CCN(CC)C(=O)Cn1cnc2sc(C(=O)NCCCN3CCOCC3)c(C)c2c1=O	nt	0.0	3.8	3	-1.7	5.5	-5	-7
CC1(C)CC(=O)C(C=NCCN2CCN(C(=S)Nc3ccccc3)CC2)=C(O)C1	nt	0.6	0.5	-25	0.2	3.6	-3	-4
Cc1ccccc1NC(=O)CN1C(=O)S/C(=C\c2ccc(-c3cccc(C(=O)O)c3C)o2)C1=O	-3	-1.2	-1.5	-13	3.1	nt	0	16
CCc1ccc(N(C(=O)c2csnn2)C(C(=O)NC2CCCCC2)c2ccncc2)cc1 (stereo unspecified)	-5	-1.0	2.0	12	-3.0	-0.1	0	11
CCOC(=O)c1cc(NCc2cccs2)ccc1N1CCOCC1	2	-0.4	2.2	-3	-0.7	-7.1	-1	-33

Compound profiles (already shown).
O=S(=O)(c1cccs1)N1CCCc2cccc(O)c21 across the screens: Beta cell apopt: -5; A1 inh: -0.6; RanGTP-Imp inh: -1.6; T cruzi repl: -3; LANA-H2A inh: 2.2; UCH37 DUB inh: 4.2; B2AR ag: -7; Calb FLC: -2
CC1(C)CC(=O)C(C=NCCN2CCN(C(=S)Nc3ccccc3)CC2)=C(O)C1 across the screens: Beta cell apopt: nt; A1 inh: 0.6; RanGTP-Imp inh: 0.5; T cruzi repl: -25; LANA-H2A inh: 0.2; UCH37 DUB inh: 3.6; B2AR ag: -3; Calb FLC: -4
CCc1ccc(N(C(=O)c2csnn2)C(C(=O)NC2CCCCC2)c2ccncc2)cc1 (stereo unspecified) across the screens: Beta cell apopt: -5; A1 inh: -1.0; RanGTP-Imp inh: 2.0; T cruzi repl: 12; LANA-H2A inh: -3.0; UCH37 DUB inh: -0.1; B2AR ag: 0; Calb FLC: 11

(cont.)
SMILES	Beta cell apopt	A1 inh	RanGTP-Imp inh	T cruzi repl	LANA-H2A inh	UCH37 DUB inh	B2AR ag	Calb FLC
COc1ccc(Cl)cc1NC(=O)CN1CCN(S(=O)(=O)N2CCC(C)CC2)CC1	-3	0.7	1.7	18	-1.5	3.3	4	14
COc1ccc(N2C(=O)C3CC=C(Cl)CC3C2=O)cc1 (stereo unspecified)	5	-0.4	2.7	6	-0.5	0.3	13	-1
C=CCn1c(SCC(=O)Nc2cc3oc4ccccc4c3cc2OC)nnc1-c1cnccn1	3	0.5	-0.1	36	8.8	1.1	-9	-12
Cc1nc2cc(Cl)ccc2c(=O)n1Cc1ccncc1	0	0.8	0.0	-6	1.2	0.7	-7	-7
CCn1cc([N+](=O)[O-])c(C(=O)N2CCOCC2)n1	-2	0.0	?	-3	5.3	2.5	5	0
CCn1nc(C)c(C(=O)Nc2cc(Oc3cc(C)cc(C)c3)cc([N+](=O)[O-])c2)c1C	14	-0.9	-6.4	26	-4.9	1.2	10	8
CS(=O)(=O)N1N=C(c2cccs2)CC1c1ccc(Cl)o1 (stereo unspecified)	0	0.2	2.7	-12	0.1	3.2	-8	-4
CCNc1nc(NCC)nc(SCCOC(=O)COc2ccc(Cl)cc2Cl)n1	-3	-0.7	2.6	-4	-3.1	2.0	7	?
Cc1ccccc1OCC(=O)OC(C)C(=O)NC1CCCC1 (stereo unspecified)	1	0.4	nt	nt	-1.4	4.7	1	nt
CC1=NN(C(=O)c2ccc(Cn3nc(C)cc3C)o2)C(O)(C(F)(F)F)C1 (stereo unspecified)	5	0.0	-2.1	-13	0.1	-1.2	0	7
CC(=O)N/N=C(\C)CC(=O)Nc1cccc2c1CCCC2	-10	0.3	1.9	10	-1.1	nt	-2	29
COc1ccc(NC(=O)N(C2CCCCC2)C(C)c2ccco2)c(OC)c1 (stereo unspecified)	0	0.3	-0.5	19	-6.2	3.9	-2	5
CC1c2ccccc2N(NC(=O)Cc2ccccc2)C1C (stereo unspecified)	-6	-0.3	-3.1	-10	-11	3.0	5	-2
COc1cccc(Nc2nc(-c3cccs3)nc3ccccc23)c1	6	0.5	-4.3	37	-2.9	-210	-2	22
CCOC(=O)N1CCN(C(c2ccc(Cl)cc2)c2sc3nc(C)nn3c2O)CC1 (stereo unspecified)	-7	-0.5	3.1	-1	-4.5	5.3	-12	-7
CN1CCN(C(=S)c2ccc(-c3cccc(Cl)c3Cl)o2)CC1	-4	-0.6	0.4	10	-2.6	3.2	4	-29
O=C(C[C@@H]1C/C=C\C[C@@H](Cc2ccc(F)cc2)C(=O)OCCNC1=O)N[C@H](CO)Cc1ccccc1	3	0.4	nt	nt	13	0.9	0	nt
Cc1cccc(NC(=O)Cc2c(F)cccc2Cl)n1	-11	-0.3	?	3	3.8	3.1	-7	-15
COCCCn1c(=N)c(C(=O)NCc2ccc3c(c2)OCO3)cc2c(=O)n3ccccc3nc21	0	0.1	36*	32	1.7	-39	-4	-12
Cc1c(C(=O)O)c2cc(O)ccc2n1-c1ccccc1	3	-1.6	-1.2	-10	2.2	-0.8	-6	-5
CC(C)C(=O)N1CCN(c2ccccc2NC(=S)NC(=O)/C=C/c2ccco2)CC1	11	0.0	nt	nt	5.5	3.5	7	nt
N/C(=N\OC(=O)c1cc(Cl)ccc1Cl)c1ccncc1	-9	-2.0	-1.0	28	-0.5	1.2	-10	-4
CN1CCN(NC(=O)CN2C(=O)/C(=C/c3c(Cl)cccc3Cl)SC2=S)CC1	-1	0.1	-1.3	-4	-5.4	3.2	3	-20
COc1cccc(OC)c1C(=O)NCCOc1cc(C)cc(C)c1	-1	0.3	-1.8	1	1.5	4.7	2	-5
Cc1ccc(-n2ncc3c(Nc4c(C)n(C)n(-c5ccccc5)c4=O)ncnc32)c(C)c1	-10	-0.1	-2.7	-2	-8.5	3.2	2	3
COc1c2c(cc3c1C(CC(O)Cc1ccccc1)N(C)CC3)OCO2 (stereo unspecified)	-7	-0.3	-3.1	18	-6.1	-17	4	-5
CCN(CC)c1nc2c(s1)C(=O)CC(C)(C)C2	-5	0.5	0.7	5	1.1	2.3	9	-5
Cc1ccc(S(=O)(=O)N2CCC(=O)N(CCOCc3cccc(Cl)c3)CC2)cc1	-7	-0.2	2.6	-1	-1.0	2.0	-4	7
COCC(=O)Nc1nnc(-c2cccs2)s1	1	1.4	-3.6	11	0.5	-9.1	-7	1
O=C(NCc1ccccn1)C1CCC(=O)N1C1CCCC1 (stereo unspecified)	nt	nt	1.6	-11	nt	3.6	-1	7
COC(=O)C(Cc1ccc(O)cc1)NC(=O)NC12CC3CC(CC(C3)C1)C2 (stereo unspecified)	3	-0.3	-2.5	-11	-8.9	5.5	22	-7
O=C1OC(c2ccc(F)cc2)=N/C1=C\c1ccc(Br)o1	-6	-1.2	-0.1	4	2.2	2.2	2	-7
Fc1ccc(NCc2cn3ccccc3n2)cc1	4	1.0	0.5	-14	-4.4	-0.6	5	-13
O=C(COc1ccc2oc3c(c2c1)CCCC3)Nc1ccccn1	-8	-0.8	1.7	-6	0.1	2.0	-11	7
COc1ccc(-c2nnc(S/C(=C/c3ccc(Cl)cc3)C(=O)O)o2)cc1	nt	-0.9	?	12	-0.5	-0.9	14	-38
CC(C)CN(C(=O)CSc1nncn1C)C1CCS(=O)(=O)C1 (stereo unspecified)	-4	0.8	nt	nt	-342	0.2	5	nt
CCOC(=O)N1CCN(Cc2nc(N)nc(Nc3ccc(OCC)cc3)n2)CC1	-4	0.3	-3.1	-19	-0.4	1.6	2	4
Cc1cc(C)c(S(=O)(=O)N2CCOC2CNC(=O)C(=O)NCCN(C)C)c(C)c1 (stereo unspecified)	-7	0.0	3.8	5	0.4	2.3	8	-3
COCCN1C(=O)N[C@@H](c2ccccc2)[C@H](C(C)=O)[C@H]1C	-4	-1.2	1.6	-12	-3.6	5.0	-1	1
Cc1c(Nc2nc(C(F)(F)F)nc3ccccc23)c(=O)n(-c2ccccc2)n1C	2	0.6	2.0	1	-6.0	7.4	-4	-8
COc1ccc(NC(=O)CSc2nnc(C3CC3)n2-c2ccccc2)cc1	3	0.3	0.2	-6	0.6	1.2	4	-3
CCc1cccc(N(C(=O)c2csnn2)C(C(=O)NC2CCCCC2)c2ccncc2)c1 (stereo unspecified)	-2	0.6	5.2	19	0.1	3.7	-10	-6
Nc1nc(Nc2cccc(C(F)(F)F)c2)nc(C(F)(F)F)n1	2	0.1	-0.3	1	-6.1	2.0	-7	2
c1ccc(-n2nnnc2Cc2nnnn2-c2ccccc2)cc1	2	0.9	1.6	-5	-0.7	4.4	-3	0
O=C(O)c1ccc(S(=O)(=O)N2CCSCC2)cc1	-6	0.2	1.8	-14	-1.2	0.1	-2	8
Cc1ccc(C(=O)Nc2nnc(CC(=O)N/N=C/c3ccncc3)s2)cc1	0	0.4	1.1	-6	8.8	nt	-6	0
CC(OC(=O)C1CC(=O)N(Cc2ccccc2)C1)C(=O)Nc1ccccc1[N+](=O)[O-] (stereo unspecified)	2	-0.1	5.2	-3	nt	2.5	-2	0
Cc1cc(OCC(=O)Nc2ccc(CCO)cc2)c2c(C)c(C)c(=O)oc2c1	7	-0.1	2.1	6	2.6	-22	3	0
CCOC(=O)C1(Cc2ccccc2C(F)(F)F)CCN(C2CCC2)CC1	4	-0.4	0.6	21	0.0	1.7	5	-11
O=[N+]([O-])c1ccc(N(CCO)Cc2ccccc2)c([N+](=O)[O-])c1	nt	1.4	3.3	-16	0.8	6.6	-6	16
CCOC(=O)c1nc(C)nc(Sc2n[nH]c(-c3ccc(C(C)(C)C)cc3)n2)c1C	-6	1.4	1.8	-2	-2.6	1.2	10	0
N#Cc1ccccc1Cn1c(=O)n(Cc2ccc(C(=O)NCc3ccco3)cc2)c(=O)c2ccccc21	5	-0.2	1.3	-1	1.5	1.3	10	7
Clc1ccccc1CN1CCN(/N=C/C=C/c2ccco2)CC1	4	0.4	-1.1	13	-0.4	nt	-1	3
